Bioassay records deposited in PubChem by National Center for Advancing Translational Sciences (NCATS).
TRPML1 ag – qHTS for Agonists of the Human Mucolipin Transient Receptor Potential 1 (TRPML1). TRPML1-expressing cells, Ca2+ dye fluorescence, FDSS; host cell line not named in the record; reference of the full effect not given here. 410,000 compounds, 0.12% hits. AID 624414, 2012. activation, % (test concentration not listed). Mucolipin-1 (Homo sapiens), Q9GZU1; in the data active = activation above about 50%; inconclusive = about 30% to 50%; inactive = below about 30%; also: 0% is about no effect; the text of the record puts the active cut at 80%
Target sequence (Q9GZU1 whole entry, looked up): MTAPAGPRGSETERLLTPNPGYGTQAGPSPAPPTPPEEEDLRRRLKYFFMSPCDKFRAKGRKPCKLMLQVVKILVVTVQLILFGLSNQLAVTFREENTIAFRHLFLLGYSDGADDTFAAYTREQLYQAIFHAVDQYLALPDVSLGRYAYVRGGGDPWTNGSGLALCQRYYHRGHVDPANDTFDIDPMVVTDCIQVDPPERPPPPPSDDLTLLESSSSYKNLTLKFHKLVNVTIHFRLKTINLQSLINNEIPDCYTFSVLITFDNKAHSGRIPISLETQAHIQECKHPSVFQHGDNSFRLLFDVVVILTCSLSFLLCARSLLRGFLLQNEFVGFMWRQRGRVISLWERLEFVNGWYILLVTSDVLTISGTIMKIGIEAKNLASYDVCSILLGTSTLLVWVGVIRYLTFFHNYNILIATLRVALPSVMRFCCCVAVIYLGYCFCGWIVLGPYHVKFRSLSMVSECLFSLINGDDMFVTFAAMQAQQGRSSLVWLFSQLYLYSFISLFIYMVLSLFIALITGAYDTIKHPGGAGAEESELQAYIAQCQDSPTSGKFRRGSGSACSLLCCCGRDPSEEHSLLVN
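Kinetic FDSS Ca2+ read in Tet-induced TRPML1-DL cells (ABD Ca8 dye plus quencher, 45-90 min RT loading): baseline, then compound, then 110 s agonist window; EC80 agonist 54-4 at 4uM final added afterwards for a 110 s antagonist window.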
Six1-Eya2 blk – qHTS Assay for Inhibitors of the Six1/Eya2 Interaction | activity change, % (no concentration beside the values) | 360,000 compounds, 0.56% hits | Homeobox protein SIX1 (Homo sapiens) + Protein phosphatase EYA2 (Homo sapiens), … | AlphaScreen GST-Six1/His-Eya2 binding, biochemical; hits give low values; control for the full effect not named in the record; in the data active = activity change below about -65%; inconclusive = about -30% to -65%; inactive = above about -30%; also: % is scaled to controls: 0 for no effect and ±100 for the full control effect
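AlphaScreen luminescence read after one hour at 37 °C in darkness. Pin-transferred compounds met GST-Six1 and His-Eya2 protein (5X stock 250 nM/500 nM) plus glutathione donor and Ni-chelate acceptor beads (5X, 50 ug/mL).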
TRPML1 blocker – qHTS for Inhibitors of the Human Mucolipin Transient Receptor Potential 1 (TRPML1); TRPML1-inducible cells, Ca2+ dye fluorescence, FDSS; hits give low values; inhibition of EC80 agonist-evoked calcium signal; activity change, negative = inhibition, % (concentration not given with the values); 390,000 compounds, 0.02% hits; AID 624415, 2012; Mucolipin-1 (Homo sapiens), Q9GZU1; in the data active means activity change below about -50%; inconclusive means about -30% to -50%; inactive means above about -30%;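 also: stimulus is agonist 54-4 at its EC80 concentration; % is scaled to controls: 0 for no effect and ±100 for the full control effect; the text of the record puts the active cut at -80%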
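Calcium fluorescence in TRPML1-DL cells induced overnight with Tet: a 110 s read after compound pin addition, then a 110 s antagonist read after challenge with 54-4 at 4 uM final (EC80).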
PINK1 modulator – A Quantitative High throughput Screen to Identify Chemical Modulators of PINK1 Expression | 410,000 compounds, 0.2% hits | PINK1 immunofluorescence, high-content cytometry, 24 h | AID 624263, 2012 | Potency, µM (titrated, usually from 76.6 µM), for inactives: at the highest dose activation (PINK1 increase), most hits filed as activators; active = well fitted activation curve with a large enough effect; inconclusive = small, poorly fitted or top-dose-only effect; inactive = flat fitted curve, though single readings scatter; cell line not stated here;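 also: potency is read from the fitted curve at half-maximal effect; % of control where 0% means no effect; nearly all actives have a fitted effect of over 65% in size; a mitochondrial uncoupler was the plate control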
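Compound titrations (5 concentrations, 24 h) on a stable cell line; DMSO and CCCP controls. Endpoint: fixed-cell PINK1 immunofluorescence with mitochondrial, cell and nuclear markers, scanned by microplate cytometer.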
D2 ag – Beta-Arrestin HTS for Positive Allosteric Modulators of the Human D2 Dopamine Receptor: Agonists; D(2) dopamine receptor (Homo sapiens), P14416; activation, % (concentration not given with the values); 360,000 compounds, 0.084% hits; AID 624465, 2012; DiscoveRx PathHunter D2 beta-arrestin, luminescence, 90 min; 100% = 57 uM dopamine signal; in the data active = activation above about 40%; inconclusive = about 15% to 40%; inactive = below about 15%; also: the text of the record calls up to 30% inactive
Target sequence (P14416 whole entry, looked up): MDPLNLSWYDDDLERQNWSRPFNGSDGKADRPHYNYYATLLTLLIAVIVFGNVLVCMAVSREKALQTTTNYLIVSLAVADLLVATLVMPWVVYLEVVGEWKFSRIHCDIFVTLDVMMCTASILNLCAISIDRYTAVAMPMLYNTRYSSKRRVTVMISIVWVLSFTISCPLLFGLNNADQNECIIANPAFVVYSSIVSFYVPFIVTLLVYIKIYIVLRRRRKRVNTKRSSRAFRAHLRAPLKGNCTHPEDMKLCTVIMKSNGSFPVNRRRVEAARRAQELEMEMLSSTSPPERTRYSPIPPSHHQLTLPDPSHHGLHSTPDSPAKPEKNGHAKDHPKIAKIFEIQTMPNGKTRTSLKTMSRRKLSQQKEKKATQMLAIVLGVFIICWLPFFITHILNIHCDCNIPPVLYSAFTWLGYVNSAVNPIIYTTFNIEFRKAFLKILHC
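Agonist mode: compounds alone added to overnight-plated D2 PathHunter cells for 90 min at 37 C, with 57 uM final dopamine (EC100) defining full response. Beta-arrestin recruitment detected by chemiluminescent reagent, read after 1 h at ambient temperature.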
CtBP-E1A blk – qHTS Assay for Inhibitors of the CtBP/E1A Interaction | AlphaScreen GST-E1A/His-CtBP binding, 1536-well; hits give low values; control for the full effect not named in the record | CtBP / adenovirus E1A interaction (AlphaScreen) | 340,000 compounds, 0.49% hits | activity change, % (test concentration not listed); in the data active means activity change below about -65%; inconclusive means about -30% to -65%; inactive means above about -30%; also: % is scaled to controls: 0 for no effect and ±100 for the full control effect
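Protein mix (5X: 125 nM each GST-E1A, His-CtBP) was incubated with pinned compound 2 h at 37 deg C in dark, in 50 mM Tris pH 8.0 buffer with 300 mM NaCl. Glutathione donor and nickel acceptor beads followed; AlphaScreen signal read after 1 h.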
Starred values were filed as active, the others as inactive; ? = inconclusive; nt = no result given; & = joins results of further samples; [ ] = another dose, or the depositor's remark.

smiles,TRPML1 ag,Six1-Eya2 blk,TRPML1 blocker,PINK1 modulator,D2 ag,CtBP-E1A blk
Cc1ccc(-n2nnnc2-c2cnc(-c3cccnc3)nc2C(F)(F)F)cc1,-0.9,5,7,5.6%,-2.7,3
O=C(NC(=S)N1CCN(c2c(Cl)cccc2[N+](=O)[O-])CC1)c1cccs1,0.0,-19,-9,-0.1%,-10,-3
C=CCSc1nc(N2CCOCC2)c2c(c1C#N)CC(C)(C)N(C)C2,nt,6,nt,1.7%,-3.7,1
O=C(Nc1cc(S(=O)(=O)N2CCOCC2)ccc1Cl)C(=O)c1c(-c2ccccc2)cc2ccccn12,0.4,-16,29,nt,-1.8,-18
COc1ccc(NS(=O)(=O)c2cc([N+](=O)[O-])ccc2N/N=C/c2c(C)[nH]c3ccccc23)cc1,1.3,-1,11,4.4%,-2.6,-5
O=C(/C=C/NCc1cccnc1)c1ccc(-c2ccccc2)cc1,-0.2,23,3,-0.1%,3.7,0
OC(c1ccccc1)c1nc(/C=C/c2ccc(C(F)(F)F)cc2)cs1 (stereo not given),-0.3,11,nt,12%,-1.9,8
COc1cc2[nH]c(=O)n(CCCCCC(=O)NC3CCCC3)c(=O)c2cc1OC,-0.3,-3,7,0.1%,-0.7,4
CCN(CC)C(=O)C(=O)c1cn(CC(=O)N2CCc3ccccc3C2)c2ccccc12,-1.2,-12,9,1.5%,-3.4,0
Cc1c(N/N=C(\C#N)C(=O)c2ccccc2)c(=O)n(-c2ccccc2)n1C,0.7,-86*,-1,-0.2%,-11,?

An excerpt from above with just CtBP-E1A blk.
structure | CtBP-E1A blk
C=CCSc1nc(N2CCOCC2)c2c(c1C#N)CC(C)(C)N(C)C2 | 1
Cc1c(N/N=C(\C#N)C(=O)c2ccccc2)c(=O)n(-c2ccccc2)n1C | ?

(cont.)
smiles,TRPML1 ag,Six1-Eya2 blk,TRPML1 blocker,PINK1 modulator,D2 ag,CtBP-E1A blk
Cc1nn(-c2ccc(F)cc2)c(Cl)c1/C=C(/CCC(=O)O)c1nc2ccccc2s1,-0.3,18,-3,0.3%,1.4,15
CCOC(=O)c1ccc(N2CSC3=C(C#N)C(c4ccc(OC)cc4OC)CC(=O)N3C2)cc1 (stereo not given),0.4,1,9,-0.3%,?,-9
Cn1nc(C(F)(F)F)c(-c2ccc(F)cc2)c1NC(=O)c1ccco1,-0.4,9,-10,5.9%,0.8,4
Cc1c(Br)c([N+](=O)[O-])nn1CCCC(=O)Nc1sc2c(c1C(N)=O)CCC(C)C2 (stereo not given),-0.3,-1,8,23%,-2.6,0
O=C(/C=C/c1ccc(Cl)c([N+](=O)[O-])c1)Nc1cccc(NC(=O)c2ccco2)c1,1.6,-6,-6,-1.5%,4.9,nt
O=C(Cn1cnc2onc(-c3ccc(F)cc3)c2c1=O)Nc1ccc(F)c(Cl)c1,1.5,nt,27,-4.4%,nt,nt
O=C(O)c1nnn(-c2ccc(F)cc2F)c1-c1ccccc1,-0.3,11,-2,2.1%,-3.7,0
O=C(Nc1ccc2c(c1)nc1n2CCN(C2CCCCC2)C1)c1ccco1,nt,-14,nt,2.3%,-4.3,?
COc1ccc(N2CCC(CNC(=S)Nc3cc(C)cc(C)c3)C2)cc1 (stereo not given),2.4,-66*,-8,3.8%,4.5,-70*
Cc1c(NC(=O)c2cc(C3CC3)on2)c(=O)n(-c2ccccc2)n1C,-0.5,1,11,0.8%,-2.9,5
O=C1NC[C@@H](Cc2ccc(O)cc2)N(CCc2cccc3ccccc23)C1=O,0.4,-6,-19,-0.2%,-3.8,-2
CN(C)c1nc(N(C)C)nc(N2CC(CCl)OC2=N)n1 (stereo not given),-1.0,4,-6,0.5%,1.9,3
CCC(C)[C@H](NC(=O)[C@@H]1Cc2ccccc2CN1)C(=O)NCc1ccc(C)cc1 (stereo not given in full),-1.0,4,-14,1.7%,-0.8,7
CC(C)Cn1cnc2c1c(=O)n(CC(=O)N(C)C)c(=O)n2Cc1ccccc1,0.2,-10,0,2.7%,-3.6,-8
COc1ccc(-c2noc(CSc3nnc(CCc4ccccc4)n3-c3ccccc3)n2)cc1OC,-0.5,-8,-11,3.2%[38.3 µM],-0.7,-5
O=C1CCCCC1(CCc1ccncc1)CCc1ccncc1,-0.3,0,-2,-1.6%,-2.2,-4
O=C(Cc1ccc(Cl)cc1)Nc1ccc2nn(-c3ccc(Cl)cc3)nc2c1,-0.7,nt,4,1.9%,nt,nt
O=C(NCc1c(F)cccc1F)c1cc(COc2c(F)cccc2F)on1,-0.3,-9,-7,0.7%,5.1,-9
Cn1c(SCC(=O)Nc2cccc(F)c2)nc2c(c1=O)SCC2,0.8,-12,-3,7.5%,-0.9,-3
COCCSc1ccccc1C(=O)Nc1ccccc1C#N,-0.4,0,7,-0.8%,0.1,nt
CCn1c(N2CCN(S(=O)(=O)c3ccccc3)CC2)nc2ccccc21,-1.5,-5,-1,1.5%,?,nt
COc1ccc(-c2cn[nH]c2-c2ccc(OCc3ccc([N+](=O)[O-])cc3)cc2O)cc1OC,0.8,-3,-8,-0.7%,9.3,nt
CCCC(=O)N(CCN1CCOCC1)c1nc2c(OC)ccc(C)c2s1,-0.6,1,-3,3.3%,3.0,0
CCOC(=O)CC(NS(=O)(=O)c1ccc2[nH]c3c(c2c1)CCCC3)c1ccccc1Cl (stereo not given),2.2,nt,15,3.0%,nt,nt
CCOC(=O)C1=C(CS(=O)(=O)c2ccc(OC)c(Cl)c2)NC(=O)NC1c1cccc(OC)c1 (stereo not given),-0.8,nt,1,0.2%,nt,nt
Cc1cccc(-n2ncc3c(=O)[nH]c(SCC(=O)NCCC4=CCCCC4)nc32)c1,-0.5,0,26,2.2%,1.6,9
COc1ccc(O)c(-c2cc(C(F)(F)C(F)F)nc(-c3ccccc3)n2)c1,-0.4,-9,-3,8.8%,-1.4,-10
CC(C)(C)OC(=O)C[C@@H]1C/C=C\C[C@H](CC(=O)NCCO)C(=O)N2CCC[C@H]2COC1=O,-0.7,-2,5,-0.7%,-2.1,-6
O=C(Nc1cc(C(F)(F)F)ccc1Cl)c1cccnc1,1.0,-4,-8,3.2%,-0.6,-14
CCCn1c(SCC(=O)N2c3ccc(F)cc3CCC2C)nnc1-c1ccccn1 (stereo not given),0.2,-2,-6,-1.3%,-3.8,-1
COc1ccc(Cl)cc1NC(=O)CCc1c(C)nc2c(c1C)c(=O)n(C)c(=O)n2C,-1.5,nt,-2,-0.2%,nt,nt
COc1ccc(C(CNC(=S)NCc2ccccc2)N2CCCC2)cc1 (stereo not given),1.9,-1,15,0.2%,-5.0,4
Cc1onc(-c2ccccc2Cl)c1C(=O)N1CC(C)CC(C)C1 (stereo not given),-0.3,-3,2,-1.4%,1.8,0
CCOC(=O)C1(C)CCCCN1C(=O)c1cccnc1 (stereo not given),-0.3,3,nt,-0.4%,4.5,6
CN(C)Cc1c(O)ccc2occ(C(=O)c3ccc(F)cc3)c12,-0.2,2,-8,1.0%,-2.3,1
Cc1ccc(C2CCN(C(=O)Nc3ccccc3)C2)cc1 (stereo not given),0.5,4,5,-2.1%,-3.2,7
CC1CCCN(C(=S)NC2CCCC2)C1 (stereo not given),-0.8,3,2,3.2%,-0.5,3
COc1ccc(N(CC(=O)NCc2ccc(F)cc2)S(=O)(=O)c2c(C)noc2C)cc1,-1.0&-1.3,-5,-1&-4,-0.5%&2.8%,-0.6,3
Cc1cc2c(cc1C)NC(CC(=O)Nc1ccccc1SC(F)(F)F)C(=O)N2 (stereo not given),2.2,nt,28,-3.1%,nt,nt
CC(NC(=O)CC1Sc2ccccc2NC1=O)c1ccccc1 (stereo not given),-0.7,-2,-10,1.2%,-3.4,-1
CCOC(=O)C1=NN(C(C)=O)C2(CC(=O)N(c3ccc(C)c(C)c3)C2=O)C1 (stereo not given),-0.9,3,-1,-2.4%,-3.2,15
Cc1oc2nc(SCCCC(=O)NCCCO)nc(N)c2c1C,-0.1,0,2,0.1%,-3.5,8
CN1C(=O)[C@@H]2C[C@@]3([C@@]45C[C@H]6C(=O)N(C)[C@@H](Cc7ccccc7)C(=O)N6[C@@H]4Nc4ccccc45)c4ccccc4N[C@H]3N2C(=O)[C@@H]1Cc1ccccc1,0.4,-8,-4,1.3%,-0.8,nt
CCCCn1nnnc1C(c1ccccc1)N1CCN(c2c(Cl)cncc2Cl)CC1 (stereo not given),?,-8,nt,9.2%,nt,-6
O=C(Nc1cccc(S(=O)(=O)C(F)(F)F)c1)[C@@H]1O[C@H](CO)[C@@H](O)[C@H]1O,-0.3,7,nt,1.8%,-3.1,8
O=C(CN1CCN(C(=O)CN2C(=O)NC3(CCCC3)C2=O)CC1)Nc1cccc(F)c1,0.6,2,-4,2.5%,-3.6,3
Oc1ccc(Nc2ccc3ccccc3c2)cc1,0.1,?,16,2.6%,2.8,-4
O=C(c1ccc2c(c1)OCO2)C1CCCN(Cc2ccc3cccc(F)c3n2)C1 (stereo not given),-0.8,-10,20,2.2%,-3.8,-5
CCOc1nc(C)ccc1-c1noc(CC)n1,-0.7,8,-2,-17%[38.3 µM],-2.0,2
CCc1ccccc1-n1c(SCC(=O)Nc2ccc3c(c2)OCCO3)nc2[nH]ncc2c1=O,-0.8,-8,-13,2.1%[38.3 µM],0.7,-7

Further entries.
smiles,TRPML1 ag,Six1-Eya2 blk,TRPML1 blocker,PINK1 modulator,D2 ag,CtBP-E1A blk
Cc1cccc(NC(=O)N2CCC3(CC2)Oc2ccccc2C(=O)N3Cc2ccccc2F)c1C,-0.1,nt,20,0.5%,nt,nt
COc1ccc(C2c3c(n(C)c4ccccc34)C(=O)N2CC(=O)Nc2cccc(F)c2)cc1 (stereo not given),1.4,nt,15,1.7%,nt,nt
O=C(NC1CCCCC1)NC1CCN(S(=O)(=O)Cc2ccccc2)CC1,-0.8,11,23,0.4%,-1.9,3
COCCCN(CC(=O)Nc1ccc(N2CCOCC2)cc1)S(=O)(=O)c1ccc(Cl)cc1,0.0,0,-12,4.0%,0.0,8
Clc1cccc(Cl)c1COc1ccccn1,-0.3,5,30,1.3%[38.3 µM],-1.8,1
